KCNQ2 block = KCNQ2 potassium channel inhibitors, primary screen, cell-based, CHO-K1, FluxOR thallium flux, B-score (AID 2156); 20 min; stronger effect = lower value; only compounds with negative scores are shown here; some inactives read as strong as hits; 310,000 compounds, 1.1% hits; B-score at 10 µM; Potassium voltage-gated channel subfamily KQT member 2 (Rattus norvegicus), O88943;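 active = fluorescence ratio B-score at most minus 3 library SDs, with starting brightness B-score within 2 library SDs, cut at about -5.5 in these data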
Target sequence (O88943 whole entry, looked up): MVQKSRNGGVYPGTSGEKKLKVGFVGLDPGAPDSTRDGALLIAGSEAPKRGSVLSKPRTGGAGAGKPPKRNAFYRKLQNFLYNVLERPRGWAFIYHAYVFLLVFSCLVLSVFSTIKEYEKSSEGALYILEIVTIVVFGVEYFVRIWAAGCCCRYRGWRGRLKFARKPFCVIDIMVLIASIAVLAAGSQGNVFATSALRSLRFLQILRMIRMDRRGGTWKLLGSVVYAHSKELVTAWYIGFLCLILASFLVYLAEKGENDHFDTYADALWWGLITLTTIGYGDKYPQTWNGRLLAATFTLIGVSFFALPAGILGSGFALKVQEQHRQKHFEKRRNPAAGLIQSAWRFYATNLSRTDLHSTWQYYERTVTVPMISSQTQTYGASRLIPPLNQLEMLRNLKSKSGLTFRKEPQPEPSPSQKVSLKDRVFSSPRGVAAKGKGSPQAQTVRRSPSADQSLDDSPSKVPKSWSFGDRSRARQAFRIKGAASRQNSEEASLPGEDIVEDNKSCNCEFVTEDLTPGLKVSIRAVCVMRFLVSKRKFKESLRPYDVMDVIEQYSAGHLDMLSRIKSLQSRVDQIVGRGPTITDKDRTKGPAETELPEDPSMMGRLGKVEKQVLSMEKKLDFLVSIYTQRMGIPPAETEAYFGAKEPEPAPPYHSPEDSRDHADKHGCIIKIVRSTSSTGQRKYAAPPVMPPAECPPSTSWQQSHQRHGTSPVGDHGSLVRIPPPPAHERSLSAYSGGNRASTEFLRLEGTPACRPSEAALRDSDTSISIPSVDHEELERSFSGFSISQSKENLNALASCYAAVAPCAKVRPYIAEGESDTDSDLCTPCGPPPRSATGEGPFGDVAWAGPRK
KCNQ2 block baseline = second read-out of KCNQ2 block, no call of its own (marks repeat the call); B-score; measured here: initial fluorescence intensity artifact check;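 brightness before thallium and not channel activity; 0 = typical well and far values either way flag optical interference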
Numbers without * were called inactive; i = inactive. A portion of the library. The share of hits here may be higher or lower than overall.

The opening 15 records (preview)
SMILES | KCNQ2 block | KCNQ2 block baseline
CCCN(CCC)CC(O)Cn1cc(/C=C/C(=O)c2cccs2)c2ccccc21 (stereo not given) | i | 7.9
Nn1c(SCC(=O)NC(=O)NC2CCCC2)nnc1-c1ccccc1F | i | -0.54
OCC[C@@H]1C[C@H](O)[C@@H](O)[C@@]2(CCCc3ccccc3O2)O1 | i | 0.14
O=C(CSc1ncccn1)N/N=C/c1ccc2c(c1)OCO2 | i | -1.6
O=C(CSc1n[nH]c(=O)n1-c1cccnc1)Nc1ccccc1 | i | 0.6
O=[N+]([O-])c1ccc(N2CCN(S(=O)(=O)c3ccccc3)CC2)cc1NCC1CCCO1 (stereo not given) | i | 0.24
CC(C)=NOC(=O)c1ccc(-c2ccccc2)cc1 | i | -0.43
Cc1cc(C)n(-c2nc3ccccc3c(=O)n2OC2CCCCC2)n1 | i | 0.75
Cc1nnsc1C(=O)N1CCC(C(=O)c2ccccc2)CC1 | i | -1.2
CCCC(=O)c1cc(-c2nc3ccccc3n2C)n(C)c1 | i | -2.7
Cc1cc(C(=O)N/N=C/c2ccccn2)n[nH]1 | i | 1.3
CCc1nccn1C(=O)c1cnn2c(C(F)F)cc(-c3ccccc3)nc12 | i | -1.4
CCOC(=O)C1=C(C)Nc2sc(C(=O)c3ccc(F)cc3)c(N)c2C1c1ccc(C(=O)OC)cc1 (stereo not given) | i | 0.74
COc1ccccc1N1CCN(C(c2ccc(C)cc2)c2nnnn2C(C)C)CC1 (stereo not given) | i | -0.65
CCOc1cc2c(cc1OCC)C(c1ccc(F)cc1)NCC2 (stereo not given) | i | -0.02

All compounds of this part, from the start:
SMILES | KCNQ2 block | KCNQ2 block baseline
CCCN(CCC)CC(O)Cn1cc(/C=C/C(=O)c2cccs2)c2ccccc21 (stereo not given) | i | 7.9
Nn1c(SCC(=O)NC(=O)NC2CCCC2)nnc1-c1ccccc1F | i | -0.54
OCC[C@@H]1C[C@H](O)[C@@H](O)[C@@]2(CCCc3ccccc3O2)O1 | i | 0.14
O=C(CSc1ncccn1)N/N=C/c1ccc2c(c1)OCO2 | i | -1.6
O=C(CSc1n[nH]c(=O)n1-c1cccnc1)Nc1ccccc1 | i | 0.6
O=[N+]([O-])c1ccc(N2CCN(S(=O)(=O)c3ccccc3)CC2)cc1NCC1CCCO1 (stereo not given) | i | 0.24
CC(C)=NOC(=O)c1ccc(-c2ccccc2)cc1 | i | -0.43
Cc1cc(C)n(-c2nc3ccccc3c(=O)n2OC2CCCCC2)n1 | i | 0.75
Cc1nnsc1C(=O)N1CCC(C(=O)c2ccccc2)CC1 | i | -1.2
CCCC(=O)c1cc(-c2nc3ccccc3n2C)n(C)c1 | i | -2.7
Cc1cc(C(=O)N/N=C/c2ccccn2)n[nH]1 | i | 1.3
CCc1nccn1C(=O)c1cnn2c(C(F)F)cc(-c3ccccc3)nc12 | i | -1.4
CCOC(=O)C1=C(C)Nc2sc(C(=O)c3ccc(F)cc3)c(N)c2C1c1ccc(C(=O)OC)cc1 (stereo not given) | i | 0.74
COc1ccccc1N1CCN(C(c2ccc(C)cc2)c2nnnn2C(C)C)CC1 (stereo not given) | i | -0.65
CCOc1cc2c(cc1OCC)C(c1ccc(F)cc1)NCC2 (stereo not given) | i | -0.02
COc1ccc(-c2noc(CN(C)S(=O)(=O)c3ccc(Cl)cc3)n2)cc1OC | i | 1.1
O=C1CCC(/C=C/c2ccccc2)=NN1Cc1ccc(F)cc1 | i | -0.17
CCSc1nnc(-c2cccc(S(=O)(=O)N(CC)CC)c2)n1Cc1ccccc1 | -10* | -0.46*
O=C(NCc1ccccc1)c1nc[nH]c1C(=O)NCc1ccccc1 | i | 0.4
COc1cccc(NS(=O)(=O)CC23CCC(CC2=O)C3(C)C)c1 (stereo not given) | i | -0.71

Next part, overlapping the part above by 2 compounds.
SMILES | KCNQ2 block | KCNQ2 block baseline
O=C(NCc1ccccc1)c1nc[nH]c1C(=O)NCc1ccccc1 | i | 0.4
COc1cccc(NS(=O)(=O)CC23CCC(CC2=O)C3(C)C)c1 (stereo not given) | i | -0.71
CCSc1nnc([C@H](Cc2ccccc2)NC(=O)OC(C)(C)C)o1 | i | -1
O=C(CNC(=O)c1cccc(Br)c1)N/N=C/c1ccc2c(c1)OCO2 | i | -0.62
CC(Sc1nnc2c(n1)C1CCC2(C)C1(C)C)C(=O)Nc1ccccc1 (stereo not given) | i | -0.67
O=C(Sc1ccccc1)c1cccc(Cn2cc(C(F)(F)F)ccc2=O)c1 | i | -0.25
C=CCOc1ccc(-c2nc3c(c(=O)[nH]c(=O)n3CCC)n2CCCC)cc1 | i | -0.67
Cc1ccc(CNC(=O)N2CCN(c3ccc(C)cc3)CC2)cc1 | i | -1.3
CCCOc1ccc(/C(O)=C2/C(=O)C(=O)N(CCCn3ccnc3)C2c2ccc(C)o2)cc1 (stereo not given) | i | 0.36
COc1cnc(-c2ccccn2)nc1Oc1ccccc1 | i | 1.5
COc1cc(/C=C/C(=O)NCCn2c(C)cc3ccccc32)cc(OC)c1OC | i | -0.2
CCc1nnc(NC(=O)Cc2sc(C)nc2-c2ccc(C)cc2)s1 | i | 0.97
COc1ccc(NS(=O)(=O)c2ccc(N3CCOCC3)c(NC(=O)c3ccccc3Br)c2)cc1 | i | 0.65
COc1cc(OC)cc(C2=NCCN2)c1 | i | 1.1
CC1(C)C2CCC1(C)C(OC(=O)C[n+]1ccccc1N)C2 (stereo not given) | i | -1.8
COc1ccc(-c2nnc(SCc3ccccn3)n2C)cc1 | i | -0.27
Cc1cc2c(cc1S(=O)(=O)NCc1ccccc1)OCC(=O)N2 | i | -1.6
COc1ccc(CNc2nc3c(c(=O)[nH]c(=O)n3C)n2Cc2ccccc2C)cc1 | i | -1.2
CCc1nc(SCC(=O)NC2CCCC2)c2c(=O)n(C)c(=O)n(C)c2n1 | i | 0.26
Cc1c(C(c2cccs2)c2c(C)n(C)n(-c3ccccc3)c2=O)c(=O)n(-c2ccccc2)n1C | i | -0.18
Cc1ccc2c(cnn2C(=O)CCCC(=O)NCc2ccc(Cl)cc2)c1 | i | -0.47
CC(C)Cn1c(SCC(=O)Nc2cc(Cl)c(Cl)cc2Cl)nc(O)cc1=O | i | -0.03
CCCNC(=O)CSc1nccn1Cc1ccc(OC)cc1 | i | -0.71
O=C(O)c1cc2nc3c(c(C(F)(F)F)n2n1)CCc1ccccc1-3 | i | 0.28
Cc1cc(-c2ccccc2)nc(-c2ccccc2)c1C | i | 1.3
COc1ccc(-n2c(C)c(C(C)=O)c(C(C)=O)c2C)cc1 | i | 2.5
N#CC(C#N)=C(Nc1ccccc1)c1ccccc1 | i | -0.32
COc1ccc(C2/C=C\CN(S(=O)(=O)c3ccc(-c4ccccc4)cc3)CC(=O)N2Cc2ccc(F)cc2)cc1 (stereo not given) | i | 1.2
CCOc1cc(C(=O)NC(=S)Nc2cccnc2)cc(OCC)c1OCC | i | 0.21
Cc1onc(-c2c(F)cccc2Cl)c1C(=O)NC1CCCCCC1 | i | -0.67
CCCc1nnc(NC(=O)CCC(=O)N2CCN(c3nc(C)cc(C)n3)CC2)s1 | i | -0.13
CC1c2cc3c(cc2CCN1CC(=O)Nc1ccccc1)OCCCO3 (stereo not given) | i | 1.8
Cc1cccc(NC(=O)c2cc([N+](=O)[O-])ccc2NC2CCCCC2)c1 | i | -1.3
Cc1ccc(S(=O)(=O)CCC(=O)Nc2nc(-c3ccncc3)cs2)cc1 | i | 0.18
Cc1cc(C(=O)N2CCCC(C(=O)c3ccc(Oc4ccccc4)cc3)C2)n[nH]1 (stereo not given) | i | -1.4
O=C(COC(=O)/C=C/c1cccc(F)c1)Nc1ccc(Cl)cn1 | i | -0.88
CN(C)C(CNC(=O)c1ccc(S(=O)(=O)Nc2cccc(C(F)(F)F)c2)cc1)c1ccco1 (stereo not given) | i | -0.88
CCN(CC)S(=O)(=O)c1ccc(O)c(NS(=O)(=O)c2ccccc2F)c1 | i | 0.16
CCCOc1ccc(S(=O)(=O)NCCCN2CCOCC2)c2ccccc12 | i | 0.31
Clc1ccc(SCc2cn3ccccc3n2)cc1 | i | -0.38
COc1ccc2cc1Oc1ccc(cc1)C[C@H]1c3cc(c(OC)cc3CCN1C)Oc1c(O)c(OC)cc3c1[C@H](C2)N(C)CC3 | i | -0.95
COc1ccc(CCNC(=O)CN(c2ccc(C)cc2)S(=O)(=O)c2c(C)noc2C)cc1OC | i | -0.27
CC(C)C(NS(=O)(=O)c1cccc2nsnc12)C(=O)NC1CCCCC1C (stereo not given) | i | 0.97
CCOC(=O)N1CCN(C(=O)c2oc(=O)c3ccccc3c2-c2ccc(C)cc2)CC1 | i | 0.08
Cc1ccc(S(=O)(=O)N(C)C)cc1NC(=O)c1cc(-c2ccco2)nc2ccccc12 | i | -0.45
COc1cc(/C=N/Nc2ccc(Cl)c(C(=O)O)c2)ccc1OC(=O)c1ccccc1F | i | -2.6
O=C(NC(Cc1ccccc1)C(=O)O)/C(=C/c1cccc([N+](=O)[O-])c1)NC(=O)c1ccco1 (stereo not given) | i | -0.06
CC(C)C(NC(=O)c1ccc(F)cc1)C(=O)Nc1cccnc1 (stereo not given) | i | -0.32
CCOC(=O)c1nnc(-c2cccs2)nc1Oc1ccc(Cl)cc1 | i | -1.2
COCCCNC(=S)N/N=C/c1ccccc1O | i | -0.26
COc1cc(NC(=O)Cn2ncc(Cl)c(Cl)c2=O)c(C)cc1[N+](=O)[O-] | i | -1.5
CC1CCN(c2cc(N)c(Cl)cc2[N+](=O)[O-])CC1 | -6.5* | -2.2*
COCCN(C(=O)CCC(=O)Nc1ccccn1)C(C(=O)NCCC(C)C)c1ccc(C)cc1 (stereo not given) | i | 0.59
O=[N+]([O-])c1ccc(C2CCCC/C2=N/OCc2ccc(F)cc2)c([N+](=O)[O-])c1 (stereo not given) | i | 0.6
CCN1CCN(c2c(Cl)cccc2NC(=O)c2ccc3c(c2)OCCO3)CC1 | i | 0.77
O=C(Nc1ccc(S(=O)(=O)NCc2ccco2)cc1)c1ccncc1 | i | 0.33
CSc1nc(NS(=O)(=O)c2cc(C)c(Cl)cc2Cl)nn1C | i | -0.59
Cc1ccc2c(C)c(C(=O)N3CCN(c4ncccn4)CC3)oc2c1C | -8.6* | -2*
O=C(CCn1nnc2ccccc21)NNC(=O)C1CCCCC1 | i | -1.3
Cc1cc(Sc2nc(NC(C)C)nc(NC(C)C)n2)nc(Cl)n1 | i | -0.44
CCC1Sc2ccccc2N(CC(=O)NCc2ccc3c(c2)OCO3)C1=O (stereo not given) | i | -0.39
CCCC(=O)Nc1nnc(-c2ccco2)s1 | i | 1

Additional records follow.
SMILES | KCNQ2 block | KCNQ2 block baseline
O=C(Cc1ccc([N+](=O)[O-])cc1)NCC1CCCO1 (stereo not given) | i | -0.24
CN(C)/C=C1/Sc2ccccc2C1=O | i | 2.5
Cc1cccc(CN2CCc3c(OCC(=O)N4CCCc5ccccc54)cccc3C2=O)c1 | i | -2.7
CCOC(=O)C1CCCN(C(=O)c2cc(-c3ccc(C)cc3)on2)C1 (stereo not given) | i | 1.2
Cc1ccc2nc(-c3ccc(N)cc3)sc2c1 | i | 0.1
Cc1cccc(C)c1OCC(O)CNS(=O)(=O)c1ccccc1C(=O)N1CCCCC1 (stereo not given) | i | 1.3
Cc1cccc(C(C(=O)NCc2ccc(F)cc2)N(C(=O)c2csnn2)C2CC2)c1 (stereo not given) | i | -0.79
O=C(Cn1nc(-c2ccccc2)ccc1=O)N1CCCCC1 | i | -0.1
Cc1cc(C)nc(NC(=O)C(c2ccccc2)c2ccccc2)n1 | i | 2.9
CCOc1ccccc1CN1CCN(Cc2cn(C)nc2-c2ccccc2)CC1CCO (stereo not given) | i | 0.14
CCOc1cccc(NC(=O)c2cnccc2C(F)(F)F)c1 | i | 0.4
O=C(Cn1cnc2ccccc2c1=O)Nc1ccc(S(=O)(=O)N2CCCC2)cc1 | i | 2.3
O=C1N/C(=C/c2cccn2-c2ccccc2)C(=O)N1Cc1ccccc1F | i | 3.1
COc1ccc(S(=O)(=O)Nc2ccc3c(c2)OCO3)cc1Cl | i | -1.9
Cc1cc(NC(=O)C2C3C(=O)N(Cc4ccc(Cl)cc4)C(C(=O)NC(C)(C)C)C34C=CC2(C)O4)no1 (stereo not given) | i | 1.5
CCCN1CCN(c2ncnc3c2nnn3Cc2ccccc2)CC1 | i | 0.53
COc1ccc(/C=C2/NC(=O)N(CC(=O)Nc3cccc(C)c3)C2=O)cc1O | i | 2.5
CSc1ccc(N/N=C(/C#N)S(=O)(=O)C(C)(C)C)cc1 | i | 1.3
CCN(CC(=O)Nc1ccc(NC(C)=O)cc1)C(=O)c1cccc(S(=O)(=O)N2CCc3ccccc3C2)c1 | i | 1.1
Nc1sccc1C(=O)c1ccccc1 | i | 0.9
CCN(CC(=O)Nc1ccc(C)c(S(=O)(=O)N(C)C)c1)Cc1ccccc1 | i | -1.2
Cc1ccc(-c2nnc(CSc3nnc(COc4cccc5ccccc45)n3-c3ccccc3)o2)cc1 | i | 0.28
CCCCn1c(O)c(C=NCCCN(C)C)c(=O)[nH]c1=O | i | 0.8
Cc1ccc(-n2c(SCC(=O)NCC3CCCO3)nc3ccccc3c2=O)cc1C (stereo not given) | i | -1.2
O=C(CCn1c(=O)sc2ccccc21)Nc1cccnc1 | i | 0.24
COCCNC(=O)CN1C(=O)NC2(CCCCCC2)C1=O | i | -0.07
COc1ccc(/C=N/n2cnnc2SCCO)cc1OC | i | -0.35
CCOC(=O)C(CCCOc1cccc(CC)c1)C(=O)OCC | i | -0.29
Cc1nnsc1-c1c(C(=O)Oc2ccccc2)c(C)nn1-c1ccccc1 | i | -0.57
COc1ccc(C2c3[nH]c4ccccc4c3CCN2Cc2cccn2-c2ncccn2)cc1C (stereo not given) | i | 0.35
COc1cc([C@H]2[C@@H]3CCCC[C@]3(O)CCN2CC(=O)Nc2ccc(C)cc2C)ccc1O | i | -0.14
Cc1cc(C)n(C(=O)CCNC(=O)c2ccccc2Br)n1 | i | 1
Cc1cccc(NC(=O)/C=C/c2ccc([N+](=O)[O-])s2)c1 | i | -1.9
CCN(CCC#N)c1ccc(/C=N/Nc2nc(C)cc(=O)[nH]2)c(C)c1 | i | 0.11
O=c1c2oc3ccccc3c2ncn1Cc1ccccc1F | i | 1.2
Cc1cc2nn(-c3cccc4ccccc34)nc2cc1N | i | -0.37

Bioassay records (PubChem BioAssay)
